# Compound activity (PubChem)
# Ecoli rRNA inh – inhibitors of bacterial rRNA selective over humanized ribosomes; E. coli WT GFP vs humanized-ribosome RFP mutants, fluorescence, 24 h; active compounds read low; DMSO median 0, no signal -100; GFP signal change (wild-type ribosome), % (test concentration not listed); 350,000 tested, 1.6% active;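 active = significant combined selectivity score with lowered wild-type GFP, culture density cut under 30%, mutant RFP and density less affected; inactive = any of these conditions unmet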; note: one replicate is shown; some compounds called inactive have numbers as strong as hits
# Calb FLC – affects C. albicans growth with fluconazole; C. albicans CaCi-2 (fluconazole-resistant clinical isolate) + fluconazole, Alamar Blue growth, 48 h; growth inhibition, % (test concentration not listed); 300,000 tested, 0.57% active; AID 1979;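 active = most replicates above 75%; inconclusive = exactly half above 75%; inactive = most below 75%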;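 note: all wells also contain fluconazole at 8 µg/ml as a sub-toxic cotreatment; 0% = median of DMSO wells and 100% = median of geldanamycin control wells; wells of about 8 µL received 7.5 nL stock; the first replicate is given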
# RanGTP-Impb inh – disruptors of Ran-importin-beta complex formation – biochemical, FRET, CFP-Ran, YFP-importin-beta, homogeneous, primary screen. 300,000 tested, 1.1% active. cell-free CFP-Ran/YFP-importin-beta FRET ratio. AID 2216. inhibition, % (no concentration beside the values);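 active = most replicates above 15%; inconclusive = exactly half above 15%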;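 note: 0% = DMSO wells and 100% = Ran loaded with GDP instead of GTP; wells of about 40 µL received 100 nL stock; the first replicate is given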
# Vif A3G – inhibitors of Vif binding to APOBEC3G peptide, primary screen, biochemical, TR-FRET, GST-Vif 1-94, biotin-A3G peptide, dose response retest (AID 1117319); inhibition, %; hits with a dose series show IC50 in µM; 260,000 tested, 0.57% active; TR-FRET GST-Vif / biotin-A3G peptide binding; higher % means a stronger effect; test concentration not given here; strong numbers were not always called active;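 active = above the screen mean plus three standard deviations and confirmed in dose response; inconclusive = results disagree or hit not tested in dose response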;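 note: Vif residues 1-94 fused to GST binding biotinylated APOBEC3G peptide 110-148; 0% = full assay without inhibitor and 100% = GST in place of GST-Vif; retest series ran down from 100 µM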
# T cruzi repl – T. cruzi replication inhibition; T. cruzi beta-gal in NIH3T3, luminescence, 90 h; inhibition, % (test concentration not listed); 300,000 tested, 1.4% active;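 active = mean inhibition across valid replicates above about 55%, limit read from the data; inconclusive = mean below that limit but half or more replicates reach it; inactive = mean below it, under half of replicates reach it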;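 note: signal also drops with host cell toxicity which is not excluded here; 0% = plate median of DMSO wells and 100% = zero luminescence signal; higher percent means less beta-gal luminescence so fewer parasites; stock transfer was 50 nL into about 50 µL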
# Bfl-1 A1 inh – inhibitors of the anti-apoptotic protein A1, read as caspase activation; MEF A1-2A-BIM cells, Caspase-Glo 3/7 luminescence, 3 h; percent of clofoctol response, vehicle zero; caspase activation, % (no concentration beside the values); 330,000 tested, 0.066% active;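 active = over half of replicate activation scores above 10%, or exactly half above 10 with the replicate mean above 10; inconclusive = replicate mean below 10 yet half the replicates above 10; inactive = over half of replicates below 10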;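 note: wells of about 30 µL received 50 nL stock; many hits fall short of the cut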
# Beta apoptosis – beta cell apoptosis inhibition. INS-1E cytokine-induced death, ATP luminescence, 48 h; percent of positive-control rescue, neutral wells zero. protection from apoptosis, % (concentration not given with the values). 300,000 tested, 0.8% active;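 active = all replicates at 75% or more, or half of them and the mean; inconclusive = half reach 75% but not the mean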;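 note: 0% = cytokine-treated negative control wells and 100% = positive control rescue; higher means more ATP so stronger rescue from cytokine killing; wells of about 40 µL received 100 nL stock; the first replicate is given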
# MLL AF4-AF9 inh – inhibitors of human MLL-AF4/AF9 interaction; P42568; AlphaScreen, biotin-AF4 peptide binding to FLAG-AF9; inhibition, % at 10 µM; 350,000 tested, 0.47% active; AID 651704;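 active = every replicate reaching a set inhibition limit, whatever the replicate mean, cut at about 25% in these data; inconclusive = mean inhibition reaches that limit but some replicates miss it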;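 note: 0% = plate neutral control median and 100% = total signal loss; the record names both 10 and 1 µM as test concentration; the first replicate is given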
# Target sequence (P42568 whole entry, looked up): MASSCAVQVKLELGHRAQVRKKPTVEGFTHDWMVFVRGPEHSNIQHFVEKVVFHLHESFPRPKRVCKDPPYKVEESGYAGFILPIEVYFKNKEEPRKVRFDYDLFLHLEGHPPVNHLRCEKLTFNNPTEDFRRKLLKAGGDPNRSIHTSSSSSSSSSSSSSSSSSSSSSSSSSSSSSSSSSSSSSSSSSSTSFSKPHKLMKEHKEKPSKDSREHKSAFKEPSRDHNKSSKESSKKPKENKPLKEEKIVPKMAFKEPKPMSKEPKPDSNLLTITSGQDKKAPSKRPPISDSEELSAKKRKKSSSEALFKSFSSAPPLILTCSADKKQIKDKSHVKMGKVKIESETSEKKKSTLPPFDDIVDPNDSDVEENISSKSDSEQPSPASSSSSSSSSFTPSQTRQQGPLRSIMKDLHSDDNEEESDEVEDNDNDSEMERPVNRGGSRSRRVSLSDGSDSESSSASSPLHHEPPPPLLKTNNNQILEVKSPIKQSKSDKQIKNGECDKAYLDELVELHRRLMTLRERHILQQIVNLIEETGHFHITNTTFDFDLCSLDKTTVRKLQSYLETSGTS
# Ecoli rRNA inh OD600 – also measured in Ecoli rRNA inh; calls as there; OD600 change, %; measured here: OD600 growth;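 optical density of the mix in the first replicate; 0 = DMSO median and -100 = no signal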
# Ecoli rRNA inh RFP – second read-out of Ecoli rRNA inh, no call of its own (marks repeat the call); RFP signal change, %; measured here: RFP humanized mutant strains;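 first replicate; 0 = DMSO median and -100 = no signal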
# * hit, by the source's call; ? = inconclusive; / = not tested or not shown; & = joins results of further samples. An excerpt. The share of hits here may be higher or lower than overall.
SMILES,Ecoli rRNA inh,Ecoli rRNA inh OD600,Ecoli rRNA inh RFP,Calb FLC,RanGTP-Impb inh,Vif A3G,T cruzi repl,Bfl-1 A1 inh,Beta apoptosis,MLL AF4-AF9 inh
Cc1nnc(SCC(=O)NNC(=O)c2ccccc2)n1Cc1ccccc1,7.0,9.2,-0.3,/,/,-4.1%,/,1.1,-6.0,-4.4
CCOC(=O)c1oc2ccccc2c1NC(=O)C1CCCCC1,20.1,8.4,-0.5,-1.4,-3.6,13.2%,14.5,0.4,-1.5,-0.7
CCOc1ccc2nc(NC(=O)CN3C(=O)NC4(CCCC4)C3=O)sc2c1,-8.8,-5.6,-3.2,2.3,9.0,0.2%,-14.1,0.2,-4.4,0.5
COc1ccc2oc(C)c(NC(C)=O)c2c1,/,/,/,-1.8,-0.1,12.5%,-9.0,-0.4,-3.7,/
O=c1[nH][nH]c(-c2ccccc2)c1C=Nc1ccc(Cl)cc1,/,/,/,14.6,4.6,27.6%,-5.7,-0.1,-4.7,/
COc1cc(NC(=O)c2ccccc2Cl)c2ncccc2c1,-11.6,-14.2,-1.8,-15.6,1.7,/,1.2,-0.1,-1.2,0.4
COc1ccc(C(=O)c2oc3ccc(Br)cc3c2NC(C)=O)cc1,4.8,11.3,-8.8,-12.6,-0.7,0.4%,17.9,-0.1,-4.2,1.1
COC(=O)c1cc(C(=O)OC)cc(N2C(=O)CC(NNC(=O)c3ccccc3Br)C2=O)c1 (stereo unspecified),/,/,/,5.2,-6.5,?,-9.4,-0.6,-11.6,/
O=C(CN1CCC(n2nnc3cc(F)ccc32)CC1)NC1CCCCC1,/,/,/,-0.5,-1.5,?,11.2,0.4,-3.7,/
Clc1ccccc1N1CCN(Cc2c[nH]c3ccccc23)CC1,-45.0*,-33.5*,-7.0*,26.8,5.2,/,73.7*,0.4,49.5,11.8
CC1CCCCC1NC(=O)NC(=O)CCl (stereo unspecified),/,/,/,?,1.3,/,-16.2,0.3,5.5,-1.4
O=C(OCn1nnc2ccccc2c1=O)c1ccc2ccccc2n1,/,/,/,-4.4,?,2.2%,13.7,/,/,/
C=CCN1C(=O)C(Cc2cccc(Cl)c2)S/C1=N/N=C/c1ccco1 (stereo unspecified),-4.7,-6.5,2.1,-8.3,0.6,4.1%,-1.6,-0.5,2.9,5.3
Cc1cc(C)n(C)c(=O)c1C#N,-2.7,-0.8,-4.5,-2.1,-0.3,10.9%,-4.5,-0.2,-6.6,-7.5
O=C(CSc1ccc(Cl)cc1)Nc1cccc(-c2nc3ccccc3[nH]2)c1,/,/,/,-20.1,1.9,13.1%,7.6,-0.5,0.5,/
O=C(CSCCS(=O)(=O)c1ccc(Cl)cc1)Nc1ccccc1,17.4,11.2,4.2,7.8,-0.3,3.1%,-6.6,1.2,-2.3,2.4
COc1ccccc1N(C(=O)c1snc(C(N)=O)c1N)C(C(=O)NC1CCCCC1)c1cccc(OC)c1OC (stereo unspecified),5.4,-8.9,3.8,45.6,0.9,/,18.6,-0.4,-0.2,2.2
CC(C)N1CCC(N2CCN(Cc3ccc4nsnc4c3)CC2CCO)CC1 (stereo unspecified),17.1,10.2,-0.4,25.6,-1.5,?,-14.6,1.2,-4.3,0.6
COCCNC(=O)c1ccccc1NC(=O)COc1ccccc1,/,/,/,3.5,-2.4,3.4%,-9.1,-0.4,-6.4,/
Nc1cccc(-c2nc3cc(S(=O)(=O)c4ccc5oc(-c6cccc(N)c6)nc5c4)ccc3o2)c1,/,/,/,-2.8,-1.5,-0.7%,27.9,-0.6,3.6,/
CN(CC(=O)Nc1ccc(F)cc1)C(=O)Cn1nnc(-c2ccccc2)n1,5.3,-0.3,0.2,2.0,-2.0,-7.5%,-13.4,0.3,-1.0,-1.8
Cc1ccc(C)c(N2CCN(C(=O)C3CCN(S(=O)(=O)c4c(C)noc4C)CC3)CC2)c1,-6.7,6.1,9.7,-1.3,1.5,27.4%,32.0,-1.0,22.9,7.7
c1csc(-c2nnc(NC3CCCCC3)c3ccccc23)c1,-53.5,-80.1,-21.2,?,-1.1,14.5%,14.5,0.4,-3.2,-15.0
NC(=O)c1ccc(NC(=O)CSc2nncn2-c2ccccc2)cc1,1.0,-2.6,-4.2,-1.2,-1.0,/,-8.6,-0.2,-0.8,-16.5
COc1ccccc1N1CCN(C(=O)CCc2c[nH]c3ccccc23)CC1,-50.0,-52.7,-1.2,12.9,3.7,/,0.5,0.5,-5.1,2.1
# (further entries)
SMILES,Ecoli rRNA inh,Ecoli rRNA inh OD600,Ecoli rRNA inh RFP,Calb FLC,RanGTP-Impb inh,Vif A3G,T cruzi repl,Bfl-1 A1 inh,Beta apoptosis,MLL AF4-AF9 inh
O=C(Nc1ccc2[nH]ncc2c1)c1ccc(F)cc1,3.2,3.6,3.9,-7.5,2.2,/,-7.7,-4.7,-5.2,1.4
C#CCOCCOCCOCCNc1nc(N2CCN(C(=O)[C@H](CCCCN)n3cc([C@@H](N)CC(N)=O)nn3)CC2)nc(N2CCN(C(=O)[C@H](CCCCN)n3cc([C@@H](N)CC(N)=O)nn3)CC2)n1,15.3,15.6,-0.5,/,/,/,/,-0.5,-4.0,36.6*
O=C(CS(=O)(=O)Cc1ccccc1)Nc1ccccc1Cl,2.9,2.6,-0.5,-20.5,-3.8,-3.7%,-7.4,-0.1,-3.9,-6.8
COc1ccc(NS(=O)(=O)c2cc(NC(=O)c3ccncc3)ccc2N2CCOCC2)cc1,/,/,/,-10.3,8.4,6.9%,7.9,-1.8,-3.4,/
O=[N+]([O-])c1ccccc1S(=O)(=O)NCc1cccnc1,-0.4,-7.1,0.5,-12.3,-2.7,4.0%,-21.0,1.8,5.8,0.5
CCOCCCNC(=O)c1ccc(-n2c(=S)[nH]c3ccccc3c2=O)cc1,10.1,9.5,0.0,0.1,-0.8,7.5%,-14.0,0.2,-3.0,-1.5
CCOC(=O)c1c(C)[nH]c(C(=O)N/N=C/c2cccc(OC)c2)c1C,/,/,/,-15.4,-4.8,/,-11.6,-0.7,-0.5,/
O=C(NC1CC1)C1=NOC(CNc2ncc(C(F)(F)F)cc2Cl)C1 (stereo unspecified),/,/,/,10.4,2.8,21.4%,4.2,0.1,-10.3,/
COCc1ccc(-c2c(-c3ccsc3)oc(=O)c3cc(OC)c(OC)cc23)cc1,9.5,1.4,-6.5,/,/,/,/,-3.3,-1.1,-5.4
O=C1c2ccccc2NC(c2cccc(Cl)c2)N1N=C1CCCCCC1 (stereo unspecified),/,/,/,-8.3,-5.1,9.3%,-6.5,0.2,-5.2,/
CCCCC(=O)Nc1nnc(C2=COCCO2)o1,10.4,-1.7,2.4,-11.4,2.6,-3.7%,-15.9,0.7,-3.0,-5.1
O=C(Nc1ccc2oc(=O)ccc2c1)c1cccnc1,/,/,/,9.2,-1.6,29.9%,20.9,0.4,15.5,/
CCC(C)N(C(=O)CSc1nnc(NC(C)C)s1)C1CCS(=O)(=O)C1 (stereo unspecified),4.2,18.8,-0.9,-2.5,1.3,-9.7%,0.9,-0.5,2.5,1.8
CC1(CCc2ccccc2)NC(=O)N(CC(=O)Nc2ccccc2)C1=O (stereo unspecified),-2.1,-2.5,0.0,4.8,0.3,-5.1%,-4.0,-0.4,-6.7,-9.3
Cc1ccc(S(=O)(=O)Nc2cccc(-c3ccc(N4CCCCCC4)nn3)c2)cc1,-22.6*,6.3*,6.6*,0.9,6.4,/,21.2,0.1,5.9,3.1
Cc1ccccc1Nc1nc(Nc2ccccc2C)nc(SC2=NCCS2)n1,12.1,10.3,11.9,1.2,0.2,4.7%,24.7,0.3,22.9,5.5
C=CCNC(=O)/C(=C/c1ccco1)NC(=O)c1ccc(Br)o1,/,/,/,-2.4,-1.2,19.8%,7.6,-0.3,4.2,/
CCN(C[C@H]1N[C@@](CC)(C(=O)OC)[C@H]2C(=O)N(C)C(=O)[C@@H]12)S(=O)(=O)c1ccc(C(C)(C)C)cc1,4.1,8.8,3.0,/,/,-3.7%,/,0.5,-12.0,-1.3
COC(=O)CP(=O)(c1ccccc1)c1ccccc1,/,/,/,-1.9,?,4.3%,-12.3,-0.1,-4.0,/
COc1ccc(CNC(=O)CN(C)S(=O)(=O)c2ccc(Br)s2)cc1,-3.6,5.4,0.0,3.1,-2.4,/,3.7,-0.1,-1.8,-1.5
CCOc1c(Br)cc(C2NS(=O)(=O)N=C3CCCCCN32)cc1OC (stereo unspecified),/,/,/,-4.2,-0.1,-4.9%,-30.4,1.5,-3.8,/
COC(=O)CCN(C(=O)c1ccc2c(c1)OCO2)c1ccccn1,/,/,/,-5.6,2.5,-0.6%,-7.7,0.2,/,/
COCCN(C(=O)COC(=O)C1COc2ccccc2O1)c1c(N)n(Cc2ccccc2)c(=O)[nH]c1=O (stereo unspecified),5.9,4.4,-0.9,-4.4,2.3,2.3%,-9.4,-0.1,/,-5.1
CC(C)(C)OC(=O)N1CCC[C@H]1C(=O)Nc1ccc(C#N)cc1,5.7,11.1,0.4,-1.3,-6.3,3.2%,-6.0,1.1,-0.5,-3.4
COc1cccc(NC(=O)CN(c2ccccc2OC)S(=O)(=O)c2cccs2)c1,-12.1,-33.5,2.2,/,/,/,/,0.1,9.6,-0.7
# The list goes on.
SMILES,Ecoli rRNA inh,Ecoli rRNA inh OD600,Ecoli rRNA inh RFP,Calb FLC,RanGTP-Impb inh,Vif A3G,T cruzi repl,Bfl-1 A1 inh,Beta apoptosis,MLL AF4-AF9 inh
COc1cccc(/C=N/NC(=O)c2cc3c(OC)cccc3[nH]2)c1O,13.1,-1.2,-4.8,10.5,2.9,/,-1.5,0.1,/,-1.7
COc1ccc(-c2cc3ccccc3cn2)cc1,-0.3,7.3,-6.5,/,/,/,/,-11.6,-16.1,-3.8
CCn1cnc2cc(NCc3nc4ccccc4n3C)ccc21,1.5,5.4,1.3,6.5,2.3,12.5%,-10.9,-7.5,1.4,4.1
Cc1onc(-c2ccccc2Cl)c1C(=O)Nc1ccc(OCC(=O)N2CCOCC2)cc1,/,/,/,?,3.5,2.1%&-4.2%,-4.8,0.9,-0.4,/
CCOC(=O)c1ccc(NC(=O)CC2C(=O)N(c3cccc(OC)c3)C(=O)N2CCOC)cc1 (stereo unspecified),/,/,/,-3.8,2.9,-0.6%,23.4,-0.2,-3.5,/
Cn1c2ccc(F)cc2c2ncn(CC3CCCO3)c(=O)c21 (stereo unspecified),/,/,/,-19.3,-4.2,?,/,-0.1,-8.6,1.3
COc1ccc(C)cc1NC(=O)C(NC(=O)c1cc(OC)c(OC)c(OC)c1)C(C)C (stereo unspecified),23.8,13.3,-2.7,-0.4,-9.4,/,5.3,-1.0,3.4,2.0
Cc1nnsc1C(=O)Nc1cccc(Cl)c1C,1.8,7.9,2.2,-1.1,-16.4,-5.8%,-18.4,-0.7,-9.5,-0.3
